# Screens (PubChem)
# ClpP mod – qHTS Assay for Activators of ClpP; ATP-dependent Clp protease proteolytic subunit (Bacillus subtilis (strain 168)), P80244; 340,000 tested, 1.9% active; Potency, µM (titrated, usually from 57.5 µM), inactives show top-dose activity change, negative = active; purified B. subtilis ClpP, FRET peptide cleavage, 20 min; active = well fitted falling curve with a large enough effect; inconclusive = small, poorly fitted or top-dose-only effect; inactive = no such curve, though single readings can be large or run the other way; also: the source files actives as falling curves though it sought activators and does not explain the sign; nearly all actives have a fitted effect of over 65% in size; many hits overshoot -100%
# Target sequence (P80244 whole entry, looked up): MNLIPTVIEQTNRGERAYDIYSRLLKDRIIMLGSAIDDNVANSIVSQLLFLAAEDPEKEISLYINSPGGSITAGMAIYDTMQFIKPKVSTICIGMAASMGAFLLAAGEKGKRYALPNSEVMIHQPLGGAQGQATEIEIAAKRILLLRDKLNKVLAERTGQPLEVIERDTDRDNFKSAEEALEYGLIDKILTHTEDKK
#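 Buffer: 100 mM Tris/HCl pH8, 100 mM KCl, 0.05% low protease BSA, 2.5% glycerol, 0.01% Tween-20. ClpP 10 microg/mL final; 20 min RT; delta FRET normalized to ADEP and DMSO controls.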
# * marks the source's active call; other numbers are inactive results; ? = inconclusive. Potency is read from the fitted curve at half-maximal effect. Only part of the results is shown, so the mix of outcomes need not match the whole.
SMILES,ClpP mod
CCCn1c(=O)c2sccc2n2c(CCCC(=O)NCc3ccccc3)nnc12,-29%
COc1ccc(C(=O)NCc2nnc(SCC(=O)Nc3ccccc3)n2-c2ccc(F)cc2)cc1,-0.2%
Fc1ccc(Nc2nc(-c3ccc(F)cc3)c3c(n2)-c2ccccc2OC3)cc1,-13%
COc1ccc(N2CCN(S(=O)(=O)c3ccc(-c4ccno4)cc3OC)CC2)cc1,-21%
CC1=C(c2ccc(C)cc2)S(=O)(=O)N(Cc2ccc(C(=O)Nc3ccc(F)cc3C)cc2)C1=O,-15%
CCOc1ccc(NC(=O)CSc2nnc(NC(=O)Nc3ccccc3)s2)cc1,0.0%
CC(C)S(=O)(=O)c1oc(-c2ccc(F)cc2)nc1S(=O)(=O)c1ccc(F)cc1,-6.2%
COc1ccc([N+](=O)[O-])cc1NC(c1nnc(-c2ccccc2)o1)c1ccccc1F (centres undefined),-0.6%
COc1ccc(Nc2c(-c3ccc(C)o3)nc3ccccn23)cc1,4.6%
Cc1ccc(NC(=O)c2c(C(=O)Nc3ccccc3)sc3nc(C)cc(=O)n23)c(C)c1,1.3%
COc1ccc(-n2cc3c(c2-c2cccc(Br)c2)c(=O)n(C)c(=O)n3C)cc1OC,?
CCOC(=O)CSc1nc2ccccc2c(=O)n1CCc1ccc(OC)c(OC)c1,0.6%
Cc1c(C(=O)NCc2ccccc2)sc2nc3n(c(=O)c12)CCC3,-18%
O=C(NCC(c1ccc(Cl)cc1)N1CCCCC1)c1ccc(F)cc1 (centres undefined),0.0%
Cc1ccc(N2CCN(C(=O)C(=O)c3cccc(Br)c3)CC2)cc1,-2.1%
COc1cc(OC)c(OC)cc1CNc1sc2c(c1C(=O)Nc1ccccc1OC)CCC2,-2.6%
CCCC(=O)Nc1cc(C(=O)NCc2ccc(OC)cc2)ccc1S(=O)(=O)c1ccc(Cl)cc1,-22%
COc1cc(OC)c(NC(=O)c2csc3c2CCC(C)C3)cc1Cl (centres undefined),4.4%
Cc1ccc(C)c(Cn2nc(C)n3c(cc4cc(C)ccc43)c2=O)c1,-2.9%
COc1ccc(CCn2c(=S)[nH]c(=O)c3cccnc32)cc1OC,-2.4%
CCOC(=O)c1c(C)oc2nc(C)nc(N3CCN(c4cccc(C(F)(F)F)c4)CC3)c12,?
CCOC(=O)C1CCCCN1S(=O)(=O)c1csc(C(N)=O)c1 (centres undefined),-1.6%
Cc1ccc(-n2nc(C)c3c(C)cc(=O)n(CC(=O)N4CCCc5ccccc54)c32)cc1,-6.2%
CCOc1ccc(C(=O)Nc2nnc(S(=O)(=O)Nc3ccccc3)s2)cc1,-0.9%
CCC(=O)N(CCC(c1ccccc1)c1ccc2c(c1)OCO2)Cc1ccc(OC(C)C)cc1 (centres undefined),-4.4%
Cc1cccc2c(=O)[nH]c3c(-c4nc(-c5ccc(Cl)cc5)cs4)c(O)cn3c12,3.5%
CC1CCN(C(=O)c2cc(-c3cccc(Cl)c3)on2)CC1,-0.6%
COC(=O)c1c(NC(=O)C2c3ccccc3Oc3ccccc32)sc2c1CCC(C(C)(C)C)C2 (centres undefined),-14%
COc1ccc(-c2ccc3c(c2)c(Sc2ccccc2)c(-c2cc(OC)cc(OC)c2)n3C)cc1,-18%
CCC(C)NC(=O)CSCc1nc(-c2ccc(C)cc2)oc1C (centres undefined),-24%
CCNC(=O)c1c(C)oc2ncn(C)c(=O)c12,-0.4%
COc1ccc(CN2C(=O)CCCC2(C)c2nc3ccccc3[nH]2)cc1 (centres undefined),1.4%
CCCCCNC(=O)C(c1ccncc1)n1c(=O)c(-c2ccccc2)nc2ccccc21 (centres undefined),4.3%
Cc1cc(C)cc(Nc2nnc(-n3nc(C)cc3C)c3ccccc23)c1,-4.0%
COC(=O)c1ccc2nc(-c3cccc(Cl)c3)c(CC3CCCCC3)n2c1,?
Cc1ccc(NC(=O)CSc2n[nH]c(-c3ccc(F)cc3)n2)cc1F,0.6%

# A portion from the list above, for reference:
SMILES,ClpP mod
COc1cc(OC)c(NC(=O)c2csc3c2CCC(C)C3)cc1Cl (centres undefined),4.4%
Cc1ccc(C)c(Cn2nc(C)n3c(cc4cc(C)ccc43)c2=O)c1,-2.9%
COc1ccc(CCn2c(=S)[nH]c(=O)c3cccnc32)cc1OC,-2.4%
CCOC(=O)c1c(C)oc2nc(C)nc(N3CCN(c4cccc(C(F)(F)F)c4)CC3)c12,?
CCOC(=O)C1CCCCN1S(=O)(=O)c1csc(C(N)=O)c1 (centres undefined),-1.6%
Cc1ccc(-n2nc(C)c3c(C)cc(=O)n(CC(=O)N4CCCc5ccccc54)c32)cc1,-6.2%
CCOc1ccc(C(=O)Nc2nnc(S(=O)(=O)Nc3ccccc3)s2)cc1,-0.9%
CCC(=O)N(CCC(c1ccccc1)c1ccc2c(c1)OCO2)Cc1ccc(OC(C)C)cc1 (centres undefined),-4.4%
Cc1cccc2c(=O)[nH]c3c(-c4nc(-c5ccc(Cl)cc5)cs4)c(O)cn3c12,3.5%
CC1CCN(C(=O)c2cc(-c3cccc(Cl)c3)on2)CC1,-0.6%
COC(=O)c1c(NC(=O)C2c3ccccc3Oc3ccccc32)sc2c1CCC(C(C)(C)C)C2 (centres undefined),-14%
COc1ccc(-c2ccc3c(c2)c(Sc2ccccc2)c(-c2cc(OC)cc(OC)c2)n3C)cc1,-18%
CCC(C)NC(=O)CSCc1nc(-c2ccc(C)cc2)oc1C (centres undefined),-24%
CCNC(=O)c1c(C)oc2ncn(C)c(=O)c12,-0.4%
COc1ccc(CN2C(=O)CCCC2(C)c2nc3ccccc3[nH]2)cc1 (centres undefined),1.4%
CCCCCNC(=O)C(c1ccncc1)n1c(=O)c(-c2ccccc2)nc2ccccc21 (centres undefined),4.3%

# Next part:
SMILES,ClpP mod
C=CCC[C@H](CCCCC)OC(=O)/C=C/[C@@H](O)[C@H](O)C[C@@H](O)CC=C,2.5%
COc1ccc(NC(=O)Cn2ncc3c(C)n(Cc4cccc(Cl)c4)c(C)c3c2=O)cc1,-3.1%
CCc1ccc(NC(=O)CN2CCSc3ccc(S(=O)(=O)N4CCCC4)cc32)cc1,?
COCCCNC(=O)c1[nH]c2ccccc2c1Sc1ccc(C)cc1,-7.0%
CC(C)C1C(=O)Nc2ccc(S(=O)(=O)NCCc3ccc(Cl)cc3)cc21 (centres undefined),3.7%
O=C(COc1ccccc1F)OCc1cc(=O)n2nc(C3CC3)sc2n1,-11%
COc1cc(Cc2nc3ccccc3n2C(C)c2nc3ccccc3[nH]2)cc(OC)c1 (centres undefined),6.1%
COc1ccc(NC(=O)c2cc3nc(-c4ccc(Cl)c(Cl)c4)cc(C(F)(F)F)n3n2)c(OC)c1,-2.7%
O=C(NCCc1ccccc1Cl)C1CCN(c2nc3ccccc3nc2C(F)(F)F)CC1,-0.3%
COC(=O)C1=CN(c2ccc(OC)cc2OC)C(N)=C(C#N)C1c1ccccc1F (centres undefined),4.3%
COc1cc2ccccc2cc1C(=O)Nc1cccc(-c2nc3cc(C)c(C)cc3o2)c1C,?
CCOC(=O)C[C@@H]1OC[C@H](C(C)C)N1S(=O)(=O)c1ccc(C)cc1,-2.7%
COc1ccc(Cc2nc3ccccc3n2Cc2ccccc2F)cc1,-2.7%
Cc1nc(-c2ccc(Cl)cc2)sc1CCNC(=O)C(=O)Nc1ccccc1C#N,-8.0%
Cc1ccc(-n2c(SCC(=O)NCc3ccc(F)cc3)nc3c([nH]c4ccccc43)c2=O)cc1,32µM*
O=C(O)CCc1ccc(-c2ccc(Cl)cc2)n1-c1cccc(C(F)(F)F)c1,-4.4%
Cc1ccccc1CNC(=O)C1CCN(c2nn3cc(-c4ccc(F)cc4)nc3s2)CC1,-0.5%
COc1ccc(CN2C(=O)CSCC2(C)C(=O)Nc2c(C)cccc2C)cc1OC (centres undefined),-0.8%
CC1(c2nnnn2Cc2ccccc2)CCC(=O)N1CCc1ccccc1F (centres undefined),-1.9%
CCOc1ccc(CCNC(=O)CN2C(=O)COc3ccc(S(=O)(=O)N4CCCC4)cc32)cc1,0.2%
Cc1cc(C(Br)(Br)Br)nc2ccccc12,0.5%
Cc1ccc(CNC(=O)Cn2nc(N3CCN(c4ccccc4)CC3)ccc2=O)cc1,-0.9%
CCCCC[C@@H](C)N1C[C@@H](COCc2ccccc2)Oc2cc(N3CCC[C@@H]3CO)ccc2S1(=O)=O,?
Cc1cccc(CN2C(=O)c3ccccc3S(=O)(=O)c3ccc(C(=O)N4CCCC4)cc32)c1,-0.1%
COc1ccccc1C(=O)Nc1nc(-c2ccc(Br)cc2)ns1,0.8%
Cc1cccc(Nc2ncnc3c2cnn3C)c1C,1.7%
CC(C)c1ccc(NC(=O)c2cn(C3CCCC3)c(=O)c3c2c2ccccc2n3C)cc1,13%
CCOC(=O)c1c(C)c(-c2ccccc2)n(CC(=O)NC(CC)Cc2ccccc2)c1C (centres undefined),-0.9%
COc1ccc(NC(=O)c2oc3ccc(S(=O)(=O)N4CCC5(CC4)OCCO5)cc3c2C)cc1Cl,?
O=C1[C@@H]2CSC(c3ccc(C(F)(F)F)cc3)N2C(=O)N1c1ccccc1 (some centres undefined),-0.6%
O=C(O)CCc1cccc2ccccc12,0.0%
COc1ccc(S(=O)(=O)n2nc(-c3ccco3)nc2NCc2ccc(OC)c(OC)c2)cc1,1.5%
Cc1ccc(Cn2cc(CN3CC(N4CCN(C5CCN(C)CC5)CC4)CS3(=O)=O)nn2)cc1 (centres undefined),1.8%
Cc1c(Cl)cccc1NC(=O)c1cc(-c2ccc3c(c2)OCO3)on1,-5.5%
COc1cc(/C=C/c2cc[n+](C)c3ccccc23)cc(OC)c1OC,-0.5%
O=C(Cn1c(=O)nc(-c2ccccc2)c2ccccc21)Nc1ccc(Cl)c(C(F)(F)F)c1,1.7%
CCc1ccc(-c2cn3c(n2)sc2cc(C(=O)NCCCc4ccccc4)ccc23)cc1,?
COc1cc(C2C(=O)N(C3CCCCC3)CC(=O)N2CCc2ccccc2)ccc1OC(C)C (centres undefined),1.5%
CCOC(=O)c1c(C)oc2nc(C)nc(NCCc3ccc(Cl)cc3)c12,-0.8%
COc1ccc(CNC(=O)Cn2ccc3cc(S(=O)(=O)N4CCCCCC4)ccc32)c(OC)c1,-8.6%
Cc1ccc(CNC(=O)CSc2nc3c(sc4ccccc43)c(=O)n2CCCOC(C)C)cc1,-3.7%
CN(C)c1ccc(CN(CC2CCCO2)C(=O)COc2ccccc2Cl)cc1 (centres undefined),-1.1%
Cc1c(C)n(Cc2ccccc2)c2ccc(C(=O)NCC(C)c3ccccc3)cc12 (centres undefined),20µM*
COc1cccc(NC(=O)C(C)n2c(=O)cc(C(F)(F)F)c3c(C)nn(C)c32)c1 (centres undefined),-12%
COc1ccc(Nc2c3c(nc4ccc(NC(=O)c5cc(Cl)ccc5OC)cc24)CCCC3)cc1OC,82%
O=S(=O)(c1ccc(-c2cnc(C3CC3)o2)cc1)N1CCN(c2ccc(F)cc2)CC1,-2.1%
COc1ccccc1C(=O)NCc1nc2cccnc2n1Cc1ccc(F)cc1,-3.3%
CC(c1nc2ccccc2[nH]1)n1c(-c2ccncc2)nc2ccccc21 (centres undefined),-5.4%
CSc1ccc(CCNC(=O)c2cc3cc4cc(C)ccc4nc3s2)cc1,-2.2%
COc1cccc2c1cc1c(=O)n(CC(=O)N3CCCCC3)nc(C)n12,?
CCCN1CNc2c(c(=O)[nH]c(=S)n2CCc2cccc(C)c2C)C1,-3.1%
Cc1ccc(Cl)cc1N1CCN(C(=O)Cn2cnc3sc(C)c(S(=O)(=O)N4CCC(C)CC4)c3c2=O)CC1,2.8%
CCCCc1nn2c(=O)cc(COC(=O)CNC(=O)c3ccccc3C)nc2s1,-4.0%
O=C(NCc1ccccc1)c1ccc2c(c1)nc1n2CCCCC1,-5.6%
CCCCCNC(=O)C(C1CC1)n1c(=O)c(-c2ccco2)nc2ccccc21 (centres undefined),4.7%
Cc1ccc(NC(=O)Cc2coc3ccc(C(C)C)cc23)cc1Cl,-5.4%
COc1ccc(OCC(=O)N2CCN(C(=O)c3ccc(OC)c(OC)c3)CC2)cc1,-1.9%
Cc1ccc(C)c(NC(=O)C2CCN(S(=O)(=O)c3c(C)noc3/C=C/c3cccs3)CC2)c1,-13%
CC1=C(C(=O)Nc2ccc(C)cc2C)C(CC(C)C)n2nc(SCc3ccccc3C)nc2N1 (centres undefined),-2.8%
CCCCC(=O)Nc1ccc2nc(SCC(=O)N3CCCC3)sc2c1,0.2%

# (listing goes on)
SMILES,ClpP mod
CCNC(=O)c1ccc2nc(CCc3ccccc3)oc2c1,-0.4%
CCN(CCCNC(=O)c1cc2c(=O)n(C)c3ccccc3c2s1)Cc1ccccc1,4.1%
Cc1ccc(NC(=O)CCCc2nc(-c3ccco3)no2)cc1Cl,1.2%
COc1ccc(NC(=O)CN2C(=O)CCn3nc(-c4cccn4C)cc32)cc1Cl,-2.5%
O=C1c2oc3ccccc3c(=O)c2C(c2cccc(O)c2)N1c1nncs1 (centres undefined),0.1%
CN1CCN(C2CN(Cc3cn(Cc4ccccc4)nn3)S(=O)(=O)C2)CC1 (centres undefined),-5.5%
Cc1ccc(C)c(N2CCN(C(=O)CCNS(=O)(=O)c3ccc4c(c3)CCN4C(=O)C3CC3)CC2)c1,-9.0%
CCOC(=O)c1oc2ccc(S(=O)(=O)n3nc(-c4cc(OC)cc(OC)c4)cc3N)cc2c1C,-0.5%
CCOC(=O)N1CCC(NC(=O)c2ccc3c(c2)N(Cc2ccc(F)cc2)C(=O)c2ccccc2S3=O)CC1 (centres undefined),-4.3%
CCc1nnc2c3ccccc3nc(Nc3ccc(C(C)=O)cc3)n12,-4.9%
Cc1ccc(NC(=O)c2cccc(N3CCCS3(=O)=O)c2)cc1,2.1%
Oc1ccccc1-c1nc(/C=C/c2ccc(F)cc2)nn1-c1ccccc1,?
O=C(c1cccc(Cl)c1)n1nc(-c2cccnc2)nc1NCc1ccccc1,-4.1%
